Screens deposited in PubChem BioAssay by National Center for Advancing Translational Sciences (NCATS).
CtBP-E1A inh: CtBP/E1A binding inhibition; 340,000 compounds, 0.49% hits; activity change, % (no concentration beside the values); AlphaScreen GST-E1A/His-CtBP binding, 1536-well; active compounds read low; control for the full effect not named in the record; in the data active means activity change below about -65%; inconclusive means about -30% to -65%; inactive means above about -30%; note: % is set by controls: 0 for no effect and ±100 for the full control effect
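Protein mix (5X: 125 nM each GST-E1A, His-CtBP) was incubated with pinned compound 2 h at 37 deg C in dark, in 50 mM Tris pH 8.0 buffer with 300 mM NaCl. Glutathione donor and nickel acceptor beads followed; AlphaScreen signal read after 1 h.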
TRPML1 ag: human mucolipin-1 channel agonism | TRPML1-expressing cells, Ca2+ dye fluorescence, FDSS; host cell line not named in the record; reference of the full effect not given here | activation, % (test concentration not listed) | AID 624414 | Q9GZU1 | 410,000 compounds, 0.12% hits; in the data active = activation above about 50%; inconclusive = about 30% to 50%; inactive = below about 30%; note: 0% is about no effect; the text of the record puts the active cut at 80%
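In this qHTS format, compounds were pin-transferred onto Ca8-dye-loaded TRPML1-DL cells induced with Tet overnight, and intracellular Ca2+ fluorescence was recorded kinetically for 110 s after a 10 s baseline. A subsequent 4uM final 54-4 (EC80) addition followed by a second 110 s read served as the antagonist phase.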
D2 agonist: human D2 receptor agonism in beta-arrestin assay; DiscoveRx PathHunter D2 beta-arrestin, luminescence, 90 min; 100% = 57 uM dopamine signal; activation, % (no concentration beside the values); AID 624465; P14416; 360,000 compounds, 0.084% hits; in the data active = activation above about 40%; inconclusive = about 15% to 40%; inactive = below about 15%; note: compound concentration not given in the record; the text of the record calls up to 30% inactive
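Agonist mode: compounds alone added to overnight-plated D2 PathHunter cells for 90 min at 37 C, with 57 uM final dopamine (EC100) defining full response. Beta-arrestin recruitment detected by chemiluminescent reagent, read after 1 h at ambient temperature.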
PINK1 expr mod: modulators of PINK1 expression | PINK1 immunofluorescence, high-content cytometry, 24 h | Potency, µM (doses to about 76.6 µM), without a hit: top-dose activation (PINK1 increase), actives largely listed as activators | 410,000 compounds, 0.2% hits | AID 624263; active = well fitted activation curve with a large enough effect; inconclusive = small, poorly fitted or top-dose-only effect; inactive = flat fitted curve, though single readings scatter; cell line not stated here;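 note: potency is the fitted concentration of half-maximal effect; % of control where 0% means no effect; nearly all actives have a fitted effect of over 65% in size; a mitochondrial uncoupler was the plate control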
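PINK1 protein level read as immunofluorescence by microplate cytometer in a fixed, stained stable cell line after 24 h exposure to five compound concentrations, with CCCP as control.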
D2 PAM: human D2 receptor positive allosteric modulation; DiscoveRx D2 beta-arrestin cells, luminescence, 90 min; 100% = 57 uM dopamine signal; potentiation, % (no concentration beside the values); 360,000 compounds, 0.23% hits; active = potentiation of 50% or more; inconclusive = 30% to 50%; inactive = 30% or less;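 note: compound concentration not given in the record; tested on top of an EC20 dose of dopamine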
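D2 cells co-treated with compound plus 50 nM dopamine (EC20) for 90 min at 37 deg C to detect potentiation. Beta-arrestin recruitment was read as enzyme-fragment luminescence after 1 h at ambient temperature. Full response was set by 57 uM dopamine.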
Six1-Eya2 blk: Six1/Eya2 interaction inhibition | Q15475+O00167 | AlphaScreen GST-Six1/His-Eya2 binding, biochemical; active compounds read low; control for the full effect not named in the record | activity change, % (no concentration beside the values) | 360,000 compounds, 0.56% hits | AID 651725; in the data active = activity change below about -65%; inconclusive = about -30% to -65%; inactive = above about -30%; note: % is set by controls: 0 for no effect and ±100 for the full control effect
Target sequence (O00167 whole entry, looked up): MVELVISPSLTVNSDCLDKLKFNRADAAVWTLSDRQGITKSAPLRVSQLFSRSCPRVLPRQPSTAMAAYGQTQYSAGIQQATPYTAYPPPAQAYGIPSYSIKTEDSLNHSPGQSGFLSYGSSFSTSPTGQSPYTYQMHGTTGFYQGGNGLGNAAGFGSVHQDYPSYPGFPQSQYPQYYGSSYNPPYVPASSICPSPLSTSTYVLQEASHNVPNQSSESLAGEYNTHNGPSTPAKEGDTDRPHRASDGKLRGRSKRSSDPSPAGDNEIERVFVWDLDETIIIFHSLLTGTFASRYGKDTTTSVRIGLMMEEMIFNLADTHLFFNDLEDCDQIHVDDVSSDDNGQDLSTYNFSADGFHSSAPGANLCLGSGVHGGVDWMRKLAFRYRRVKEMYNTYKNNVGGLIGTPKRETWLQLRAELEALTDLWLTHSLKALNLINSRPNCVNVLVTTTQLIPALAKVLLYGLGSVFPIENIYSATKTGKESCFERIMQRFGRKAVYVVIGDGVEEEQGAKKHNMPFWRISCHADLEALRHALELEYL
Target sequence (Q15475 whole entry, looked up): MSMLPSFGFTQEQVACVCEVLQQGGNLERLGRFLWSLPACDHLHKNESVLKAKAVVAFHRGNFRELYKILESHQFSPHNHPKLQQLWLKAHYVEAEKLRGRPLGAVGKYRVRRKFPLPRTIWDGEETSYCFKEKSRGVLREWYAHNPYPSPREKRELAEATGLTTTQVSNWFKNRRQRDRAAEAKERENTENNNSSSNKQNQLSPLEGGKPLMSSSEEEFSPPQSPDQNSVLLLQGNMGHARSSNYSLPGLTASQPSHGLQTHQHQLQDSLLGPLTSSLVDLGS
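Compounds are tested against tagged Six1 and Eya2 proteins bridged by glutathione donor and nickel acceptor beads; after a one-hour incubation at 37 °C without light, AlphaScreen emission is recorded.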
* = called active by the depositor; u = inconclusive; x = not tested or not shown; & = joins results of further samples; [ ] = another dose, or the depositor's remark.

SMILES	CtBP-E1A inh	TRPML1 ag	D2 agonist	PINK1 expr mod	D2 PAM	Six1-Eya2 blk
CCN(CC)P(=O)(Nc1cccc(C(F)(F)F)c1)c1ccc(N(C)C)cc1NC(=O)c1ccco1 (configuration not stated)	u	0.6	-9.0	1.6%	-4	u
O=S1(=O)CC(N2CCC(c3ccccc3)CC2)CN1Cc1ccccc1 (configuration not stated)	-2	-0.4	-7.1	-0.9%	-11	-5
Nc1nn(S(=O)(=O)c2ccccc2)cc1-c1ccc([N+](=O)[O-])cc1	0	0.0	u	u	74*	-20
Cc1ccc(-n2nnnc2SCC(=O)NNC(=O)c2ccc([N+](=O)[O-])cc2)cc1	x	-0.1	10	7.1%	-7	0
Cc1ccc(C)c(S(=O)(=O)NNC(=O)c2sc(NS(=O)(=O)c3ccccc3)nc2C)c1	x	0.5	2.7	2.2%	-2	-4
Nc1nnnn1/N=C/c1ccco1	5	-1.1	-2.6	-2.5%	-17	-2
CC(C)C[C@@H](CN1CCC[C@@H]1CN1C(=S)NC[C@@H]1Cc1ccc(O)cc1)N1C[C@H](Cc2ccc(O)cc2)N(CC2CCCCCC2)C1=S	-26	1.2	5.1	-0.2%	-5	4
CCCCc1nn(-c2cc(Cl)ccc2OC)c2c1C(=O)CCC2	5	0.2	0.3	4.8%	-3	2
COC(=O)CSc1nnc(-c2ccco2)n1-c1ccc(C)cc1	-1	1.0	0.2	-0.4%	-5	5
CSc1ccc(S(=O)(=O)NC2CCCCCC2)cc1	3	1.1	-4.1	x	8	1
Cc1ccsc1C(C(=O)NC(C)(C)C)N(C(=O)c1csnn1)c1ccccc1 (configuration not stated)	x	1.3	-3.2	0.3%	-1	2
O=C(CNS(=O)(=O)c1ccccc1)OCC(=O)c1ccc([N+](=O)[O-])cc1	-5	0.1	13	3.1%	11	7
CCS(=O)(=O)N1CCN(c2nc(-c3ccccc3)cs2)CC1	-6	2.4	1.6	4.2%[38.3 µM]	-15	-9
O=C(NNS(=O)(=O)c1cccc(Cl)c1Cl)c1cccc(S(=O)(=O)N2CCOCC2)c1	0	0.1	-0.6	1.0%	-10	17
CCOC(=O)c1[nH]c2ccccc2c1NC(=O)C(C)(C)C	8	-0.7	-2.2	1.8%	-4	0
O=C(Cc1nc2ccccc2[nH]c1=O)c1ccccc1	4	12	-2.5	3.2%	-4	2
CN(C1CCCCC1)S(=O)(=O)CCNC(=O)c1ccccc1	-3	-0.5	-3.7	1.0%	-12	2
CCn1c2ccccc2c2nnc(SCC(=O)NC(CC(C)C)C(=O)OC)nc21 (configuration not stated)	-2	-0.5	-2.2	2.8%	-21	4
O=C(CNC(=O)c1cccs1)NCC(=O)OCc1ccccc1Cl	6	-0.1	-1.6	x	-20	3
CCOC(=O)N1CCN(c2nc3ccc(C)cc3n3cnnc23)CC1	-1	-0.7	-3.8	-1.1%	-10	6
COc1ccc(CCNC(=O)C(=O)NCC2OCCCN2S(=O)(=O)c2cc(C)ccc2C)cc1 (configuration not stated)	3	1.4	-1.3	-1.4%	5	5
NS(=O)(=O)c1ccc(NC(=O)c2ccc(S(=O)(=O)N3CCOCC3)o2)cc1	2	1.3	-3.2	1.0%	-1	0
CCCCCc1ccc(OCCOCCn2c[n+](C)c3ccccc32)c(CCCCC)c1	x	6.6	-7.6	-2.1%	-12	-2
Cc1cccc(C)c1Nc1nnc(SCc2cc([N+](=O)[O-])cc3c2OCOC3)s1	8	0.8	-0.8	1.7%[38.3 µM]	0	-4
O=c1cc(C=NNc2ccc([N+](=O)[O-])cc2)[nH]c(=O)[nH]1	-2	0.0	4.5	1.6%	10	-14
CSc1ccccc1NC(=O)c1cnc2n(c1=O)CCS2	1	-1.1	-1.0	-0.4%	-1	1
CC(C)Nc1nc(NC(C)C)nc(N(C)C(N)=O)n1	10	-0.1	-3.3	-1.3%	0	0
CCCCS/C(N)=N/N=C/c1cc(C)ccc1O	-22	0.7	-0.3	1.4%	-28	-14
Cc1cccc(CC(=O)Nc2ccc(C(=O)N3CCCCC3)cc2)c1	0	0.3	2.3	-0.5%	1	8
C[C@](N)(Cc1ccc(O)c(O)c1)C(=O)O	2	-0.5&-0.2	-2.0	-0.2%&-0.1%	8	-28

Looked up above.
CCOC(=O)N1CCN(c2nc3ccc(C)cc3n3cnnc23)CC1 in D2 agonist shows -3.8
CCCCc1nn(-c2cc(Cl)ccc2OC)c2c1C(=O)CCC2 in D2 PAM shows -3
CCN(CC)P(=O)(Nc1cccc(C(F)(F)F)c1)c1ccc(N(C)C)cc1NC(=O)c1ccco1 (configuration not stated) in PINK1 expr mod shows 1.6%
C[C@](N)(Cc1ccc(O)c(O)c1)C(=O)O in TRPML1 ag shows -0.5&-0.2
CN(C1CCCCC1)S(=O)(=O)CCNC(=O)c1ccccc1 in PINK1 expr mod shows 1.0%

Additional compounds:
SMILES	CtBP-E1A inh	TRPML1 ag	D2 agonist	PINK1 expr mod	D2 PAM	Six1-Eya2 blk
COC(=O)C1=C(C)N(C)C(=O)NC1c1cc2c(cc1[N+](=O)[O-])OCO2 (configuration not stated)	-14	-0.5	1.8	-1.3%	-12	0
CCCCc1cc(=O)oc2cc(C)cc(OCC(=O)NC(Cc3ccc(Cl)cc3)C(=O)O)c12 (configuration not stated)	-2	x	-4.7	0.5%	-1	-2
CCC(=O)NC(=S)Nc1ccc(-c2nc3ccc(C)cc3s2)cc1	1	0.2	0.0	5.7%	10	5
O=C(Nc1cccc(-c2ccc(F)cc2)c1)C1CCCN(Cc2cccnc2)C1 (configuration not stated)	0	-0.4	-1.4	-0.5%	-13	0
CCOc1ccc(NC(=O)c2ccc(CSc3nnc(C)s3)cc2)cc1	6	0.1	-2.5	2.5%	-3	-2
O=C(CSc1nnc(-c2cc3ccccc3cc2O)n1Cc1ccco1)N1CCc2ccccc2C1	8	0.4	-5.4	-0.9%[38.3 µM]	-17	-1
COc1ccccc1-c1noc2c1C(=O)N(C(=O)OC(C)(C)C)CC2	2	-0.3	-1.5	-1.0%	-1	-1
COc1ccc(-c2cn3c(C)c(C(=O)N4CCN(c5ccc(F)cc5)CC4)sc3n2)cc1	1	0.0	-3.6	2.0%	-3	-1
C=CCNC(=O)C1CC(=O)N(c2ccc(OCC(=O)Nc3ccc(C)cc3)cc2)C1 (configuration not stated)	-1	1.3	-0.9	0.3%	-4	1
COc1cccc(N2CCN(C(=O)c3ccccc3SCC(=O)NCc3ccco3)CC2)c1	x	-1.6	3.0	0.9%	-1	3
C[C@H](CO)N1C[C@H](C)[C@@H](CN(C)C)Oc2c(NC(=O)CCCCCC(=O)Nc3ccccc3N)cccc2C1=O	-6	-0.3	-1.3	0.9%	-4	-28
Cc1nn(C(C)C)c(C)c1CN1CCN(Cc2ccsc2)C(CCO)C1 (configuration not stated)	-7	-0.6	-4.0	3.8%	-14	9
Cc1cccc(OCC(=O)NC(C)C(=O)N/N=C/c2c(OCc3ccccc3)ccc3ccccc23)c1 (configuration not stated)	-3	2.8	1.7	1.6%[38.3 µM]	-8	-6
CC(C)CCNC(=O)C(=O)Nc1ccccc1	3	0.9	3.5	8.8%	-4	9
CCC(C)(C)NC(=O)C(c1ccc(OC)cc1)N(C(=O)CCC(=O)Nc1cc(C)on1)C1CC1 (configuration not stated)	-2	1.4	-4.1	0.3%	-4	2
Cc1sc(NC(=O)c2ccc(Br)s2)c(C(N)=O)c1C	1	0.0	2.6	-2.7%[38.3 µM]	-8	-1
COc1ccc(C(CCN2CCCCC2)c2c(OC)cc(OC)c3c(-c4ccccc4)cc(=O)oc23)cc1 (configuration not stated)	-15	4.0&-0.7	5.0	0.1%	-105	-6
CC(=O)N1CCc2cc(S(=O)(=O)N3CCCCCC3)ccc21	-4	-0.6	-3.6	1.4%	-11	1
Cc1cc(C)c(CN2CCN(C(=O)Cn3cnc4c(OCc5ccccc5)ncnc43)CC2)c(C)c1	-6	-0.1	-2.9	1.4%	-3	-10
O=C1CC(c2ccc(F)cc2)Sc2nc(-c3ccccc3)c(-c3ccccc3)n21 (configuration not stated)	3	2.4	-0.4	-1.2%	-8	5
Cc1ccc(CNC(=O)C2CC(c3ccc(C(F)(F)F)cc3)=NO2)o1 (configuration not stated)	x	-0.4	-5.4	6.7%	-7	-4
Cc1ccc(NC(=O)c2cc3ccccc3o2)cc1	x	0.5	-0.6	-0.7%	-56	-12
COCCn1c(SCC(=O)NCc2ccco2)nc2cccnc21	-1	-0.8	-3.2	-2.1%	-3	-4
Cc1ccc(NC(=O)CN(C)C(=O)CSc2ncc(C(F)(F)F)cc2Cl)cc1	4	0.9	-3.1	-1.6%	-23	27
c1ccc(C2c3c(ccc4ccccc34)Oc3ncn4nc(-c5ccco5)nc4c32)cc1 (configuration not stated)	-2	-0.3	-6.1	5.6%	-15	-2
CN(CC1CCCCO1)C(=O)c1cc(COc2ccc(F)cc2Cl)on1 (configuration not stated)	11	1.9	-4.6	2.7%	-27	-2
CNc1nc(SCc2ccc(C)cc2)nc2c1CCCC2	-1	0.5	-3.2	u	-23	0
Cc1ccc(/C(COc2ccccc2O)=N\O)cc1	7	-0.5	-4.1	0.6%[38.3 µM]	2	0
COc1cccc(N2CCN(S(=O)(=O)c3cc4c(cc3C)N(C)CCO4)CC2)c1	u	1.0	-4.6	6.2%	-9	-7
O=C(CN(Cc1ccco1)C(=O)CCC(=O)Nc1ccccn1)NCCc1ccccc1	3	-0.1	-2.2	2.2%	-16	-4

Ordered by the number under D2 agonist (falling): three of the compounds above
compound	D2 agonist
C[C@H](CO)N1C[C@H](C)[C@@H](CN(C)C)Oc2c(NC(=O)CCCCCC(=O)Nc3ccccc3N)cccc2C1=O	-1.3
COc1ccccc1-c1noc2c1C(=O)N(C(=O)OC(C)(C)C)CC2	-1.5
CCCCc1cc(=O)oc2cc(C)cc(OCC(=O)NC(Cc3ccc(Cl)cc3)C(=O)O)c12 (configuration not stated)	-4.7

Other records follow:
SMILES	CtBP-E1A inh	TRPML1 ag	D2 agonist	PINK1 expr mod	D2 PAM	Six1-Eya2 blk
Cc1cccc(NC(=O)/C(C#N)=C\c2cc(C)n(-c3ccc(C(=O)O)cc3)c2C)c1	x	0.3	-4.5	2.4%	-6	-5
COc1cc(O)c(C(CC(=O)N2CCCCC2)c2ccc3c(c2)OCO3)c(OC)c1 (configuration not stated)	-1	2.0&0.3	1.3	1.7%	-4	-13
COc1ccc(C(=O)OCC(=O)Nc2ccc3c(c2)OCO3)cc1S(=O)(=O)N1CCOCC1	-5	-0.1	1.7	-0.6%	-5	-13
COC(=O)c1ccccc1NC(=O)CNc1ccc(F)c(S(=O)(=O)N2CCOCC2)c1	-6	3.2	14	2.0%	1	-3
CC(C)(C)Sc1ccc([N+](=O)[O-])cc1C(=O)Nc1ccncc1	8	0.0	15	19%	-5	0
O=C(CSc1nnc(-c2ccccc2)o1)NC1CCCCC1	1	0.4	-4.2	0.9%	-11	3
CCCn1c(=C(C#N)C#N)s/c(=C2\C=Cc3ccccc3N2CC)c1=O	-1	-0.6	-1.4	0.8%	-11	3
CCCCCC(=O)NC(NC(=S)Nc1ccc(S(N)(=O)=O)cc1)C(Cl)(Cl)Cl (configuration not stated)	3	0.2	-0.9	1.1%	-14	3

Compounds as they come. About 1.3% of those tested had a hit in this group.
